Screening data from PubChem BioAssay.
Lassa entry: blocks Lassa virus binding or cell entry; Lassa virus pseudotyped entry inhibition, cell-based qHTS; control for the full effect not named in the record; many of its hits are not listed in these tables; Potency, µM (titrated, usually from 49.2 µM), without a hit: at the highest dose activity change, negative = inhibition, actives largely listed as inhibitors; 4.1% of 18,000 active; AID 720533; active = well fitted inhibition curve with a large enough effect; inconclusive = small, poorly fitted or top-dose-only effect; inactive = no such curve, though single readings can be large or run the other way; tested in HEK293 cells; further: luciferase read-out
Marburg entry: inhibitors of Marburg virus binding or entry into cells; Marburg virus pseudotype entry/binding inhibition, cell-based; control for the full effect not named in the record; many of its hits are not listed in these tables; Potency, µM (doses to about 49.2 µM), for the others: top-dose activity change, negative = inhibition, actives largely listed as inhibitors; 6.5% of 18,000 active; active means well fitted inhibition curve with a large enough effect; inconclusive means small, poorly fitted or top-dose-only effect; inactive means no such curve, though single readings can be large or run the other way; tested in HEK293 cells; further: luciferase read-out
Numbers without * were called inactive; ? = inconclusive; nt = no result given; & = joins results of further samples; ! = repeats disagree; [ ] = another dose, or the depositor's remark. On the % scale 0 is the no-effect control and ±100 the full control effect; potency means the concentration at half of the fitted maximal effect.

Results follow in this order: Lassa entry | Marburg entry
COC(=O)N[C@@H](c1cccc(C)c1)[C@]1(C(C)=O)CCCC1=O
→ 7%[8.59 µM] | 3%[8.59 µM]
COc1cc(=O)n2c(c1C(=O)N(C)Cc1ccsc1)CCN(Cc1c(C)nn(C)c1Cl)CC2
→ -4% | -12%
CCCCc1nc2c(c3c1C[C@H](C)OC3)CN(C(=O)NCc1ccco1)CC2
→ ? | ?
CC(C)n1cnc2c(C(=O)N[C@H]3CN4CCC3CC4)cc(Cl)cc21
→ 35µM*! | 7.1µM*
COC(=O)NC(c1ccccc1)C1(C(=O)OC)C(=O)Cc2ccccc21 (stereo not given)
→ 3% | 3%
O=c1ccc2cc(OC3OC(CO)C(O)C(O)C3O)c(O)cc2o1 (stereo not given)
→ 12% | -12%
O=C(NCCc1ccccc1)c1cccc(NC(=O)C2CCCCC2)c1
→ 9% | 41%[activator]
O=C(O)COc1nn(Cc2ccccc2)c2ccccc12
→ -4% | 15%
COC(=O)C1=C(C)N(Cc2ccccc2)C(=NCCc2ccccn2)NC1c1cccc(F)c1 (stereo not given)
→ -8%[8.59 µM] | -21%[8.59 µM]
CC(=O)OCC1OC(n2cnc3c(Cl)nc(Cl)nc32)C(OC(C)=O)C1OC(C)=O (stereo not given)
→ -24% | -54%
CC1=C(C)C(=O)C(C(CCCCCC(=O)O)c2ccccc2)=C(C)C1=O (stereo not given)
→ -1% | -17%
COC1=C(C(=O)c2ccccc2)C(=O)[C@@]2(CC=C(C)C)C[C@H](C(=O)OCC(F)(F)F)C(C)(C)[C@@]1(CC=C(C)C)C2=O
→ 2%[8.59 µM] | 33%[activator][8.59 µM]
COc1cccc(C(=O)NCC2Cc3cccc(-c4ncccn4)c3O2)c1OC (stereo not given)
→ -22% | 16%
COc1ccc([C@H]2C[C@@H](O)[C@H](n3cc(COC(=O)c4ccccc4)nn3)CN2CC2CCCCC2)cc1
→ 12% | ?
COCC(=O)Nc1cc(C(=O)NC2Cc3ccccc3C2)cc2nc(-c3cccnc3)n(C)c12
→ -12% | ?
CCc1nc2cc(C(=O)NC3CCOC(C)(C)C3)cc(NC(=O)c3ccccc3OC)c2n1C (stereo not given)
→ 6% | 20%
CC1CN(c2cc3c(cc2F)c(=O)c(C(=O)O)cn3-c2ccc(F)cc2F)CCN1 (stereo not given)
→ 2% | 17%
CC1=CCc2c(cc3oc(C)cc(=O)c3c2O)OC1
→ 10% | 42%[activator]
O=C(O)/C=C1\CCCc2ccccc2[C@H]1O
→ -6% | 1%
COC(=O)c1cccc(C(=O)N2CCc3c(cnc(C)c3CNC(=O)c3ccsc3)C2)c1
→ -18% | -11%
C=CC1=C(C)C2=CC3=NC(=C(CC(=O)[O-])C4=NC(=C(C)C4=C([O-])[O-])C=c4[n-]c(c(C)c4CC)=CC1=N2)C(CCC(=O)[O-])C3C.[Cu+2].[Na+].[Na+].[Na+] (stereo not given)
→ ? | ?
C[C@@H]1C(=O)CC2C(C)(C)CCC[C@]2(C)[C@@]1(O)CCc1ccoc1 (stereo not given in full)
→ -4% | -28%
CC1(OC(=O)C2CCCC2)C(=O)C=C2C=C(c3ccsc3)N(CCN3CCOCC3)C=C2C1=O (stereo not given)
→ 10%[8.59 µM] | -15%[8.59 µM]
O=c1c2ccccc2nc2n1CCc1c-2[nH]c2ccccc12
→ 50%[activator] | 38%[activator]
COc1cc2c(c(OC)c1OC)C(c1ccc(C)cc1)CC(=O)O2 (stereo not given)
→ 4% | 11%
COCCN(CCOC)Cc1cc(=O)oc2cc(C)ccc12
→ 19% | 11%
C[C@H]1CC[C@H]2C(=O)N(Cc3ccccc3)C[C@@H](O)CN2[C@H]1c1cccc(Br)c1
→ nt | 10%[8.59 µM]
CCOC(=O)c1c(N)sc(C)c1-c1ccccc1
→ 0% | 4%
COC(=O)C1=C(C(=O)OC)[C@@H]2N(Cc3ccccc3)c3ccccc3[C@@]23CCC(=O)N(CCc2ccccn2)C3=N1
→ -23%[8.59 µM] | ?
CC/C=C\C/C=C\C/C=C\C/C=C\C/C=C\CCCC(=O)NC(C)C(=O)O (stereo not given)
→ -14% | -9%
COc1cc(=O)n2c(c1C(=O)NCc1ccco1)CCN(Cc1ccc3ccccc3c1)CC2
→ 5% | 7%
CCCCC[C@H](O)/C=C/[C@H]1OC(O)C[C@H](O)[C@@H]1C/C=C\CC(=O)O (stereo not given in full)
→ 5% | -1%
CCOC(=O)CNC(=O)O[C@@H]1C(=O)c2ccc(OC)cc2O[C@H]1c1ccc2c(c1)OCO2
→ 18% | 29%
Cn1ccc2c(-c3ccc4[nH]ccc4c3)cc3c(c21)C1CCC3O1 (stereo not given)
→ -15% | 19%
CC(C)C[C@@H](CC(=O)N[C@@H](CCCN)CC(=O)N[C@@H]1CCNC[C@H]1C(=O)N[C@H](CC(=O)N[C@@H](CCC(=O)O)CC(=O)O)CC(C)C)NC(=O)[C@@H]1CCCC[C@H]1N
→ 1% | -24%
COc1ccc2c(c1)OCC(Cc1ccc(OC)c(OC)c1)C2=O (stereo not given)
→ -2% | -8%
CN1CCN(C2=Nc3cc(F)ccc3Cc3ccccc32)CC1
→ -10%&-23% | ?
C[C@H]1COc2cc(NCCCN3CCOCC3)ccc2S(=O)(=O)N1
→ ? | 18%
COc1ccc2[nH]cc(CCNc3ncncc3-c3ccccc3CN(C)C)c2c1
→ -14% | ?
O=C(O)c1ccc(NC(=O)N2C[C@H]3C[C@@H](C2)c2cccc(=O)n2C3)cc1
→ -6% | -6%
C[C@H]1NCc2cc(-c3ccc4c(=O)c(C(=O)O)cn(C5CC5)c4c3OC(F)F)ccc21
→ -13% | -12%
C[C@H]1CC[C@H]2C(=O)N(Cc3cccc([N+](=O)[O-])c3)C[C@H](O)CN2[C@H]1c1cccc(Br)c1
→ 8%[8.59 µM] | -16%[8.59 µM]
CC[C@H](C)[C@H](NC(=O)[C@H](CO)NC(=O)[C@@H](NC(=O)[C@H](CO)NC(=O)[C@@H](NC(=O)[C@H](CC(N)=O)NC(=O)[C@H](Cc1ccccc1)NC(=O)[C@H](CO)NC(=O)[C@H](CS)NC(=O)[C@H](CC(N)=O)NC(=O)[C@H](CCCCN)NC(=O)[C@@H](NC(=O)[C@H](CCC(=O)O)NC(=O)CN)[C@@H](C)CC)[C@@H](C)CC)[C@@H](C)O)C(=O)N[C@@H](CCCN=C(N)N)C(=O)O
→ -27% | -4%
COc1cccc(CNS(=O)(=O)c2cc(Br)ccc2Br)c1
→ -15% | ?
CCC1(c2cccc(O)c2)CCCCN(C)C1 (stereo not given)
→ -17%[17.8 µM] | 6%[17.8 µM]

Given in markdown: part of the list above
| SMILES | Lassa entry | Marburg entry |
| --- | --- | --- |
| CC(=O)OCC1OC(n2cnc3c(Cl)nc(Cl)nc32)C(OC(C)=O)C1OC(C)=O (stereo not given) | -24% | -54% |
| CC1=C(C)C(=O)C(C(CCCCCC(=O)O)c2ccccc2)=C(C)C1=O (stereo not given) | -1% | -17% |

Continued:
Results follow in this order: Lassa entry | Marburg entry
CC(C)CN1CC(COCc2ccccc2)Oc2ccccc2S1(=O)=O (stereo not given)
→ ? | ?
CC(=O)Nc1ccccc1C(=O)C(=O)O
→ -23% | 3%
CC(=O)N(CC(O)CO)c1c(I)c(C(=O)NCCO)c(I)c(C(=O)NCC(O)CO)c1I (stereo not given)
→ -8% | 10%
CC(C)(C)OC(=O)N1CCCC(C(=O)Nc2ccc(C(=O)N3CCCCC3)cc2)C1 (stereo not given)
→ 4% | -15%
C=CCN1C(=O)[C@]2(OCCC=C[C@H]2C)c2c(Br)cccc21
→ -1%[8.59 µM] | 54%[activator][8.59 µM]
COc1ccc2c(CN3CCCCC3)cc(=O)oc2c1
→ 28% | 76%[activator]
C=C(C[C@]1(C(=O)OC)CC2(CC=C(C)C)C(=O)C(C(=O)CC(C)C)=C(O)C(CC=C(C)C)(C1)C2=O)C(=O)OC (stereo not given in full)
→ ? | 3%
O=C1OC2(c3ccccc31)c1cc(Br)c(O)c(Br)c1Oc1c2cc(Br)c(O)c1Br
→ 7% | 4%
CCCCN1CC(N2CCN(C)CC2)CS1(=O)=O (stereo not given)
→ -17% | 7%
C[C@@H](ON=C1[C@H]2CCn3c(=O)n(-c4ccccc4)c(=O)n3[C@@H]2[C@H](O)[C@@H]2O[C@H]12)c1cn([C@H](CO)Cc2ccccc2)nn1
→ nt | -23%[8.59 µM]
O=C(O)CCC(=O)O
→ 0% | 3%
COC(=O)[C@@H]1CCCN1Cc1ccc2c(c1)CN(Cc1coc3ccc(C)cc3c1=O)CCO2
→ -5% | ?
COc1ccc(CCN(C)CCCC(C#N)(c2cc(OC)c(OC)c(OC)c2)C(C)C)cc1OC (stereo not given)
→ -10%&-15% | 32µM*
N[C@@]1(C(=O)O)CC[C@H](C(=O)O)C1
→ -22%&0%&2% | -11%&5%&36%
CC(=O)OCC(=O)[C@@]1(O)[C@H](C)C[C@H]2[C@@H]3C[C@H](F)C4=CC(=O)C=C[C@]4(C)[C@H]3[C@@H](O)C[C@@]21C
→ -1% | 12%
COc1cccc(CN(C)C(=O)c2cnn(-c3nccc(-c4ccc5c(c4)OCO5)n3)c2C)c1
→ 17% | 42%[activator]
CC(C)NC[C@H](O)c1ccc(NS(C)(=O)=O)cc1
→ -8% | 11%
CCCS(=O)(=O)NCc1c(C)ncc2c1CCN(C(=O)/C=C/c1cccc(Cl)c1)C2
→ -10% | -8%
Cc1c(NC(C)C)c(=O)n(-c2ccccc2)n1C
→ -22% | 23%
COc1ccc(-c2cc3ccccc3c(=O)o2)cc1
→ 38%[activator] | 44%[activator]
Cc1noc(C)c1-c1cncnc1NC1CC1
→ 7% | -19%
COCOc1c2c(c(OCOC)c3c(OCOC)cccc13)C(=NNS(C)(=O)=O)C1=C2CCCC1
→ -3%[8.59 µM] | 1%[8.59 µM]
COc1ccc(-c2ccccc2[C@H]2[C@@H]3C=CC[C@@H](C)[C@@H]3C(=O)N2Cc2ccccc2)cc1
→ ? | 14µM*
COc1cccc(-c2coc3ccc(Br)cc3c2=O)c1
→ 14% | 38%[activator]
C[C@H]1C[C@@H](C)O[C@@]2(C1)C(=O)N(CC1CC1)c1ccccc12
→ -1%[8.59 µM] | -21%[8.59 µM]
CO[C@H]1C([C@@]2(C)O[C@@H]2CC=C(C)C)[C@]2(CC[C@H]1OC(=O)/C=C/C=C/C=C/C=C/C(=O)O)CO2 (stereo not given in full)
→ -19% | -14%
CCCN(C/C=C\I)[C@@H]1CCc2ccc(O)cc2C1
→ 6% | 3%
CCC1(C2CCN(C(=O)c3ccc(C)cc3C)CC2)NC(=O)N(CCc2scnc2C)C1=O (stereo not given)
→ -4% | -16%
Cc1c(C(=O)c2cccc3ccccc23)c2cccc3c2n1[C@@H](CN1CCOCC1)CO3
→ ? | ?
O=C(O)CCc1cc(I)c(O)c(I)c1
→ -15% | 3%
CNC(=O)c1sc(-n2cnc3cc(OC)c(OC)cc32)cc1OCc1ccccc1C(F)(F)F
→ nt | ?
CCCC[C@]12Cc3cc(C#N)ccc3[C@H](O1)c1c(cc(-c3ccccc3)oc1=O)O2
→ 20%[8.59 µM] | 10%[8.59 µM]
CCOCCOC(C)=O
→ -8%[107 µM] | 5%[107 µM]
CCCCN1C[C@H](CSC)[C@@H](CC(=O)Nc2ccc(Br)cc2)C1=O
→ -14% | -4%
Nc1ncnc2c1[nH]c(=O)n2C1CC(O)C(CO)O1 (stereo not given)
→ 11% | -10%
CC[C@H]1OC(=O)C[C@@H](O)[C@H](C)[C@@H](O[C@@H]2O[C@H](C)[C@@H](O[C@H]3C[C@@](C)(O)[C@@H](O)[C@H](C)O3)[C@H](N(C)C)[C@H]2O)[C@@H](CC=O)C[C@@H](C)C(=O)/C=C/C(C)=C/[C@@H]1CO[C@@H]1O[C@H](C)[C@@H](O)[C@@H](OC)[C@H]1OC
→ 1%&5% | -20%&-16%
CC(C)Cc1nc2cc(NS(=O)(=O)N(C)C)cc(C(=O)N3CCSCC3)c2n1C
→ 1% | -12%
O=C(O)c1ccccc1-c1oc2cc(O)ccc2c(=O)c1Oc1ccccc1
→ -27% | 17%
COCc1ccc(C(=O)N2CCOc3ccc(CN4CCN(c5ccc(F)cc5)CC4)cc3C2)o1
→ 8% | 10%
Oc1cccc(-c2c3nc(c(-c4cccc(O)c4)c4ccc([nH]4)c(-c4cccc(O)c4)c4nc(c(-c5cccc(O)c5)c5ccc2[nH]5)CC4)C=C3)c1
→ 25µM* | ?
COc1ccc(C2CC(=O)c3ccc(OC)cc3O2)cc1 (stereo not given)
→ 2% | -5%
O=C(CCN1CCCCC1)Nc1ccc2c(c1)C(=O)c1ccc(NC(=O)CCN3CCCCC3)cc1C2=O
→ -1% | -26%
CCOC(=O)NN=C1C[C@@H](O)[C@@H](O)[C@@H]2[C@H]3C(=O)N(Cc4ccc5c(c4)OCO5)C(=O)[C@@H]3CC[C@@H]12
→ -3%[8.59 µM] | -2%[8.59 µM]
CCNC(=O)N1CCN(CCCC(c2ccc(F)cc2)c2ccc(F)cc2)CC1
→ ? | ?
CC(=O)c1ccc(F)c(-c2cc(C)cc3c2OC(CNC(=O)c2ccnn2C)C3)c1 (stereo not given)
→ -25% | -8%
CCCCCCCCCC[n+]1cccc([C@@H]2CCCN2C)c1
→ ? | 6.3µM*
CCOC(=O)[C@@H]1CSCCS(=O)(=O)N1C(=O)[C@H](CC(C)C)NC(=O)OC(C)(C)C
→ 3% | -13%
O=C(Cn1cncn1)NCC1Cc2cc(-c3ccsc3)cc(Cl)c2O1 (stereo not given)
→ 4% | -29%

Not all compounds are listed. The share of hits here may be higher or lower than overall.
